Screening results: PubChem, National Center for Advancing Translational Sciences (NCATS)
Vaccinia mCherry: inhibitors of vaccinia virus infection (mCherry reporter signal) | Vaccinia virus mCherry reporter infection, fluorescence; about a quarter of the inactives have no number | Potency, µM (top dose mostly 36.5 µM), for inactives: top-dose activity change, negative = inhibition, actives largely listed as inhibitors | actives 0.63% (n = 310,000); active = well fitted inhibition curve with a large enough effect; inconclusive = small, poorly fitted or top-dose-only effect; inactive = no such curve, though single readings can be large or run the other way; tested in A549 cells; note: nearly all actives have a fitted effect of over 35% in size; inactives centre near -10
Vaccinia Venus: vaccinia inhibition (Venus reporter) | Vaccinia virus Venus reporter expression, fluorescence | Potency, µM (doses to about 36.5 µM), without a hit: at the top dose activity change, negative = inhibition, actives largely listed as inhibitors | actives 0.46% (n = 330,000); active means well fitted inhibition curve with a large enough effect; inconclusive means small, poorly fitted or top-dose-only effect; inactive means no such curve, though single readings can be large or run the other way; tested in A549 cells; note: nearly all actives have a fitted effect of over 30% in size; inactives centre near -10
* marks the source's active call; other numbers are inactive results; i = inactive; ? = inconclusive; nt = no result given; [ ] = another dose, or the depositor's remark. % is set by controls: 0 for no effect and ±100 for the full control effect; potency is the fitted concentration of half-maximal effect.

SMILES | Vaccinia mCherry | Vaccinia Venus
CCC1([N+](=O)[O-])COC(c2ccc(C(C)C)cc2)OC1 (stereo not drawn) | i | -26%
O=C(NNC(=O)c1c(F)cccc1F)c1ccccc1-n1cccc1 | -9% | -13%
Cc1ccc(Sc2nc(C)cc(C)c2S(C)(=O)=O)cc1 | -13%[1.46 µM] | -27%
Cc1nc(CSc2nsc(/C=C/N(C)C)c2C#N)cs1 | i | 14%
Cc1ccc(C)c(NS(=O)(=O)c2cc(Br)cnc2N)c1 | nt | -15%
CCOc1ccc(CCNC(=O)c2cc3sc(Cl)cc3n2C)cc1OCC | -6% | -8%
O=C(Nc1ccccc1)N1CCSCC1 | -5% | -12%
C[n+]1ccccc1/C=C/c1ccc(F)c(F)c1 | -1% | -8%
Fc1cccc(NC(=S)N2CCc3ccccc32)c1 | -15% | -3%
CC(=O)c1sc(C(C)(C)C)cc1NC(=O)c1ccccc1C(=O)O | i | 10%
O=C1c2cccc3cccc(c23)C(=O)N1CCN1CCN(CC(O)COc2ccc3ccccc3c2)CC1 (stereo not drawn) | -14% | -13%
COc1cc(C=C2C(=O)C=CC2=O)ccc1O | ? | ?
CC(C)CN(C(=O)COC(=O)c1cnc(Cl)c(Cl)c1)c1c(N)n(Cc2ccccc2)c(=O)[nH]c1=O | i | -18%
Cc1ccc(N2CC(C(=O)N3CCC(C(=O)NC(C)(C)C)CC3)CC2=O)cc1 (stereo not drawn) | 14% | -14%
CCOC(=O)c1ccc(NS(C)(=O)=O)cc1 | nt | -8%
O=C(C[C@H]1C[C@H](C(=O)N2CCOCC2)[C@@]2(CCC3CCCC3)c3[nH]c4cc(-c5ccco5)ccc4c3CCN2C1=O)NCCCn1ccnc1 | -29% | 10µM*
Cc1ccc(O)c(C(=O)c2cnc3c(c2)COc2ccc(C)cc2-3)c1 | nt | -13%
COc1cccc(NC(=O)CNC(C)CCC(C)C)c1 (stereo not drawn) | nt | -2%
COc1cc(OC)c(C=Cc2ccncn2)c(OC)c1 | 2% | -15%
NS(=O)(=O)c1ccc(CNC(=S)NCc2ccc(Cl)cc2)cc1 | i | -24%
CN(C(=O)COc1ccc(-c2nnco2)cc1)C1CCS(=O)(=O)C1 (stereo not drawn) | i | -16%
Cc1cc(OCC(=O)NC(Cc2ccc(Cl)cc2)C(=O)O)c2c3c(c(=O)oc2c1)CCC3 (stereo not drawn) | 13% | 2%
O=C(COc1ccccc1)NNc1c2ccccc2nc2ccccc12 | nt | ?
CNC(=O)c1nn(-c2ccccc2)ccc1=O | nt | -23%
CCN(CC)c1cc2c(cc1F)c(=O)c(S(=O)(=O)c1ccccc1)cn2Cc1ccccc1 | 0% | -17%
CC1(C(=O)NS(=O)(=O)C2CC2)CCCN(C(=O)CSc2ccccc2)C1 (stereo not drawn) | 9% | 8%
COC(=O)c1ccccc1NC(=O)c1ccc(-c2ccccc2F)o1 | i | -2%
COC(=O)C(Cc1ccc(O)cc1)N1Cc2ccccc2C1=O (stereo not drawn) | i | -17%
O/N=C/c1ccc(-c2cc(Cl)ccc2Cl)o1 | -4% | -20%
CCOC(=O)c1[nH]cnc1C(=O)NC1CCN(C(=O)OC(C)(C)C)CC1 | -1% | -7%
O=C(NCCc1ccccc1)C1CCC(=O)N1C1CCCC1 (stereo not drawn) | i | -6%
CCOC(=O)c1c(C)[nH]c(C(=O)CN2C(=O)NC(CC)(c3ccccc3)C2=O)c1C (stereo not drawn) | nt | -29%
N#CC1(c2ccccc2)CCC(=NO)CC1 (stereo not drawn) | nt | -9%
Cc1cc(C)c(S(=O)(=O)N2CCOC2CNC(=O)C(=O)NCc2ccco2)c(C)c1 (stereo not drawn) | -26% | -5%
CC(Sc1nnc(-c2cccnc2)n1N)C(=O)Nc1ccc2c(c1)OCCO2 (stereo not drawn) | -18% | -6%
COc1cc2c(cc1/C=C1/NC(=O)N(CC(=O)Nc3ccccc3)C1=O)OCO2 | -26% | -30%
Cc1ccc(-n2c3c(cc(C(=O)Nc4cccc(Cl)c4)c2=O)C(=O)CC(C)(C)C3)cc1 | i | -6%
COc1ccc(OC)c(N2C(=O)[C@@H]3C(c4ccccc4Cl)=NO[C@@H]3C2=O)c1 | i | -10%
Cc1cccc(C)c1NC(=O)C1=C(O)c2sccc2N(C)S1(=O)=O | -8% | 2%
O=S(=O)(c1ccccc1)c1nc(-c2ccc(F)cc2)oc1NCC1CCCO1 (stereo not drawn) | -3% | -16%
Cc1nc(C)c(C(=O)Nc2cccc(C)c2C)s1 | i | 7%
Cc1c(NC(=O)c2cccc(S(=O)(=O)N3CCOCC3)c2)c(=O)n(-c2ccccc2)n1C | i | -8%
Cc1oc2c(c(=O)c1C)C(=O)CC(c1ccccc1)C2 (stereo not drawn) | nt | -13%
CN(C1CCCC1)C1CCN(C(=O)CNC(=O)/C=C/c2ccccc2)CC1 | -26% | -11%
Cc1cccc(C2=NN(c3ccc(Br)cc3)[C@@H](C(=O)N3CCOC3=O)[C@@H]2c2ccccc2)c1 | -3% | -8%
CCOC(=O)[C@@]1(C#N)C(c2ccc(Cl)c(Cl)c2)[C@H](C(N)=O)N2C=C(C(C)=O)C=C[C@H]21 (stereo partly drawn) | -13% | -3%
CCOc1ccc(C(C(=O)NCC2CCCO2)N(Cc2cccs2)C(=O)c2snc(C(N)=O)c2N)cc1 (stereo not drawn) | 28% | 6%
CC(=O)c1ccc(NC(=O)CCOc2ccccc2)cc1 | -5% | 4%
CC(=O)NCN1CCN(CNC(C)=O)CC1 | nt | -1%
CCOC(=O)[C@@H]1[C@H]2COc3cc(OC)ccc3[C@H]2N2C(=O)N(c3cccc(Cl)c3)C(=O)[C@@]12C | i | -10%
CCc1cccc(C)c1NC(=O)c1cn2c3c(ccc(Cl)c3c1=O)OC(C)C2 (stereo not drawn) | -20% | -14%
CC[C@@H]1C(c2ccc(F)cc2)=NN(c2ccccc2)[C@H]1C(=O)N1CCOC1=O | -16% | -14%
CCC(N=c1cc(-c2ccc(OC)c(OC)c2)oc2ccc(C)cc12)C(=O)O (stereo not drawn) | -1% | ?
O=C(C1=C[C@@H](C2CC2)C[C@@H](OCc2ccc(CO)cc2)O1)N1CCN(Cc2ccc3c(c2)OCO3)CC1 | i | -20%
CCOC(=O)c1ccc2c(c1)nc(C1CCN(S(=O)(=O)c3cccs3)CC1)n2CC | ? | -25%
COc1ccc(/C=C/c2nccc3ccccc23)cc1OC | -22% | -15%
CC(C)c1nc(SCC(=O)N2CCc3ccccc32)n[nH]1 | 7% | -3%
CCC(C)(C(=O)NC1CCCCC1)N(C(=O)Cc1cccs1)c1ccccc1 (stereo not drawn) | -1% | -16%
CN(C)c1ccc(-c2ccnc3c2CC(C)(C(=O)Nc2ccc(Cl)c(C(F)(F)F)c2)O3)cc1 (stereo not drawn) | -29% | -28%
CCn1ccnc1CN1CCCC(C(=O)c2ccc(SC)cc2)C1 (stereo not drawn) | -3% | 4%

The list continues.
SMILES | Vaccinia mCherry | Vaccinia Venus
COc1ccc(S(=O)(=O)Oc2cccc(C(=S)N3CCOCC3)c2)cc1 | i | -15%
CC(C)c1ccc(Nc2ncnc3c2c(-c2ccccc2)cn3-c2ccccc2)cc1 | -15% | -2%
Cn1cc(C(=O)NCc2ccc(Cl)cc2)c(=O)c2cc(S(=O)(=O)N3CCCCCC3)ccc21 | ? | -19%
OC(c1ccccc1)C(Nc1ccccn1)c1ccccc1 (stereo not drawn) | -19% | -12%
Cc1nn(C)c(C)c1CN(C)S(=O)(=O)c1ccc(F)cc1 | -8% | -26%
CCOC(=O)c1c(NC(=O)COc2cccc(C)c2C)sc2c1CCCCC2 | 7% | 11%
Cc1cc(SCC(=O)N/N=C/c2ccc(O)c(O)c2)c(C)cc1Br | ? | -23%
NC(=O)COC(=O)CNC(=O)c1cc(Cl)cc([N+](=O)[O-])c1 | i | 1%
O=C(CCn1nc(-c2ccc(F)cc2)ccc1=O)NCc1ccccc1 | -8% | -19%
Cn1c2ccccc2c2cc(/C=N/NC(=O)c3ccc(N)cc3)ccc21 | -21% | -28%
CCOC(=O)c1ccc(NC(=O)C2Cc3ccccc3CN2S(=O)(=O)c2ccc(Cl)cc2)cc1 (stereo not drawn) | -11% | -8%
O=C(CSc1ccccn1)N1CCc2ccccc21 | -4% | -2%
O=C1CN(C(=O)CSc2nc3cc(Cl)ccc3c(=O)n2Cc2ccccc2)c2ccccc2N1 | i | -15%
NC(=S)N/N=C/c1ccc2cccc(OCc3ccccc3)c2n1 | ? | ?
CC1(c2ccccc2Cl)NC(=O)N(CC(=O)N2CCc3ccccc32)C1=O (stereo not drawn) | i | -8%
CCCCSCc1nc2nc(Cl)c(Cl)nc2[nH]1 | ? | ?
C/C(O)=C(/C=NCC(=O)O)C(=O)Nc1nccs1 | i | 1%
Cc1ccc(NC(=O)CN2C(=O)c3ccccc3Sc3ncccc32)c(C)c1 | -11% | -9%
O=C(NC(C(=O)O)c1ccccc1)c1ccccc1 (stereo not drawn) | -5% | -1%
CC(C)COC(=O)Nc1nnc(Cc2ccccc2)s1 | -9% | 1%
CS(=O)(=O)N1CCN(c2c(Cl)cccc2[N+](=O)[O-])CC1 | -17% | -15%
Cn1ccnc1SCC(=O)c1cccc(Br)c1 | i | -4%
CC(NC(=O)CSc1nc2ccc(N)cc2s1)c1ccccc1 (stereo not drawn) | 0% | -15%
CC(NO)C(C)(C)NO (stereo not drawn) | nt | -18%
COc1ccccc1NC(=S)N(Cc1cccnc1)Cc1ccccc1Cl | -29% | -3%
COC(=O)CN1C(=O)C(C)(C)c2cc(S(=O)(=O)Nc3ccc(C(C)C)cc3)ccc21 | -7% | 2%
CCOc1ccccc1N1CCN(C(=O)CN2C(=O)NC3(CCCC3)C2=O)CC1 | -14% | -7%
O=C(CSc1nc(-c2ccccc2)nc2ccccc12)Nc1cccc(C(=O)O)c1 | -10% | -8%
COc1cccc(C(=O)Nc2cc(C)c3c(=O)oc4ccccc4c3n2)c1 | 3% | -8%
CC(=O)C1=C(S(=O)(=O)c2ccc(C)cc2)CS(=O)(=O)C1 | i | -1%

Ordered by length of the SMILES (smallest number first): part of the list above.
SMILES | Vaccinia mCherry | Vaccinia Venus
Cc1nn(C)c(C)c1CN(C)S(=O)(=O)c1ccc(F)cc1 | -8% | -26%
O=C(CSc1nc(-c2ccccc2)nc2ccccc12)Nc1cccc(C(=O)O)c1 | -10% | -8%
COC(=O)CN1C(=O)C(C)(C)c2cc(S(=O)(=O)Nc3ccc(C(C)C)cc3)ccc21 | -7% | 2%
Cn1cc(C(=O)NCc2ccc(Cl)cc2)c(=O)c2cc(S(=O)(=O)N3CCCCCC3)ccc21 | ? | -19%

Other structures follow:
Values run as follows: Vaccinia mCherry, Vaccinia Venus
> Cc1cccc(C(=O)N2CCCC(Nc3ccc(F)c(F)c3)C2)n1 (stereo not drawn)
    -11%, 0%
> CCCn1c(SCC(=O)Nc2ccc(C)c(S(=O)(=O)N3CCOCC3)c2)n[nH]c1=O
    i, -25%
> CCOc1ccc2nc(NC(=O)CN3CCC(n4nnc5cc(C(F)(F)F)ccc54)CC3)sc2c1
    -18%, -26%
> Cc1ccc(C)c(NC(=O)Cn2nc([N+](=O)[O-])c(Br)c2C)c1
    -8%, -3%
> COc1ccccc1NS(=O)(=O)c1ccc(OC)c(OC)c1
    -8%, 3%
> O=C(/C(=C/c1ccccc1)c1ccccc1)N1CCCCC1
    -2%, -14%
> CCOC(=O)N1CCN(C(=O)CN(c2ccccc2OC)S(=O)(=O)c2ccc(OC)cc2)CC1
    -15%, -10%
> CC1CCCC(C2(O)C(=O)Nc3ccccc32)C1=O (stereo not drawn)
    nt, -12%
> COc1cc(CN2CCN(c3cccc(C)c3C)CC2)cc([N+](=O)[O-])c1O
    -7%, -11%
> Cc1cc(-c2nnc(CCC(=O)NCCc3ccccc3F)o2)no1
    i, -11%
> COc1ccc(N2CCN(C(=O)COC(=O)/C=C/c3ccc(OC(F)F)cc3)CC2)cc1
    -11%, -1%
> Cc1ccc(S(=O)(=O)NCC(=O)OCC(=O)c2cc(C)n(-c3ccccc3)c2C)cc1
    -8%, -6%
> Cc1cc(NC(=O)Nc2cc(F)ccc2F)no1
    -14%, -22%
> Cc1ccc(O)c(NC(=O)c2ccc3c(c2)C(=O)N(CC(C)C)C3=O)c1
    ?, -9%
> N/C(=N\N=C\c1cccc(O)c1)c1nonc1N
    -13%, -3%

Among those listed so far, three have a tert-butyl group.
Values run as follows: Vaccinia mCherry, Vaccinia Venus
> CC(=O)c1sc(C(C)(C)C)cc1NC(=O)c1ccccc1C(=O)O
    i, 10%
> Cc1ccc(N2CC(C(=O)N3CCC(C(=O)NC(C)(C)C)CC3)CC2=O)cc1 (stereo not drawn)
    14%, -14%
> CCOC(=O)c1[nH]cnc1C(=O)NC1CCN(C(=O)OC(C)(C)C)CC1
    -1%, -7%

(listing goes on)
Values run as follows: Vaccinia mCherry, Vaccinia Venus
> COC(=O)c1ccc2[nH]c(C)cc(=O)c2c1
    i, -7%
> O=C(Nc1ccc(C(=O)N2CCOCC2)cc1)C1CC1
    i, -7%
> COc1cccc(Nc2nc3ccccc3c3nncn23)c1
    -17%, -14%
> C/C=C/C=C/C(=O)N1CC2(CC(c3cccc(NC(=O)CCCCC)c3)=NO2)C[C@H]1C(N)=O (stereo partly drawn)
    i, -10%
> Cc1ccc(CNC(=O)Cn2cccc2C(=O)c2ccccc2C)cc1
    -13%, -15%
